# Screening results (PubChem BioAssay)
# KAT2A inh = qHTS Assay for Inhibitors of GCN5L2 | actives 0.21% (n = 390,000) | Potency, µM (top dose mostly 58.9 µM), for the others: top-dose activity change, negative = inhibition, most hits filed as inhibitors | GCN5L2 HAT assay, ThioGlo1 CoA-SH fluorescence | AID 504327, 2011 | Histone acetyltransferase KAT2A (Homo sapiens), Q92830
#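 Enzyme at 20nM final was mixed with library compounds for 15 min at room temperature. Peptide H3(1-25) at 75uM, acetyl-CoA at 70uM and ThioGlo1 at 50uM were then added. Plates were read immediately and after 20 min (Ex340nm/Em540nm).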
# FEN1 inh = qHTS Assay for the Inhibitors of Human Flap endonuclease 1 (FEN1). Recombinant FEN1 flap cleavage, fluorescence, 15 min. Potency, µM (highest dose often 114 µM), inactives show top-dose activity change, negative = inhibition, hits mostly inhibitors. actives 0.35% (n = 390,000). AID 588795, 2011; note: nearly all actives have a fitted effect of over 65% in size
# Target sequence (P39748 whole entry, looked up): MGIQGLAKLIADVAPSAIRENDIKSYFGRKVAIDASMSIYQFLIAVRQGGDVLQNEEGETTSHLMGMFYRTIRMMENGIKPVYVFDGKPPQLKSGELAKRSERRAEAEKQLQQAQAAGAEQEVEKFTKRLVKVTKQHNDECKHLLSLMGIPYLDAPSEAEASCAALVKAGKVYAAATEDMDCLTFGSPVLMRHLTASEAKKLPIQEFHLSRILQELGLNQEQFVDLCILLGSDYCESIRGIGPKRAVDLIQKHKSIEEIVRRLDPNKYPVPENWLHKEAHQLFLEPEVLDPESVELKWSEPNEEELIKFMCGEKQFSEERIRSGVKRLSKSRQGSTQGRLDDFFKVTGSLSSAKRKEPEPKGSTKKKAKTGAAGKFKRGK
#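 Read-out was taken twice, immediately and after 15 min, following addition of 50 nM substrate to 10 nM FEN1 that had sat with test compound for 15 min at room temperature. Curves came from a four-parameter Hill model.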
# * hit, by the source's call; ? = inconclusive; & = joins results of further samples. Calls come from the whole dose curve; as a rule, active = well fitted curve in the direction sought with a large enough effect; inconclusive = small, poorly fitted or top-dose-only effect, or another doubt; inactive = no such curve, though single readings can be large; an effect the other way counts as inactive or inconclusive. % is set by controls: 0 for no effect and ±100 for the full control effect; potency is the fitted concentration of half-maximal effect. These rows are one share of the data, and most or all hits are left out here.
KAT2A inh	FEN1 inh	SMILES
-2%	1%	CN(C)C(CNC(=O)c1ccc(NS(=O)(=O)c2cccc([N+](=O)[O-])c2)cc1)c1ccco1 (configuration not stated)
-6%	-12%	Cc1csc(SCC(=O)NCc2cccc(Cl)c2)n1
-6%	12%	CCc1cccc(NC(=O)C2CCCN(c3cnccn3)C2)c1 (configuration not stated)
-11%	-5%	COC(=O)NC1(C(F)(F)F)NC(=O)N(C2CCCCC2)C1=O (configuration not stated)
-8%	-4%	COc1ccc(CCNC(=O)c2cc([N+](=O)[O-])ccc2N2CCOCC2)cc1
2%	0%	COCCn1c(=S)[nH]c2cc(C(=O)N3CC(C)CC(C)C3)ccc2c1=O (configuration not stated)
-11%	-10%	Cc1ccc(NC(=O)c2cnccn2)c(OC(F)F)c1
-9%	1%	O=[N+]([O-])c1ccc(Sc2ncc3ccccn23)nc1
-1%	-1%	c1ccc(CCc2nn3c(-c4ccncc4)nnc3s2)cc1
-18%	-7%	COc1ccc(-c2csc(Nc3ccccn3)n2)cc1OC
1%	-3%	Cc1ccc2[nH]c(=O)c(CN(CCN3CCOCC3)C(=O)Nc3ccccc3F)cc2c1
-14%	1%	Cc1noc(C)c1C(=O)Nc1sc(C)c(C)c1C#N
-3%	1%	Cn1cc(S(=O)(=O)NCc2ccc3c(c2)OCO3)c(C(F)(F)F)n1
-4%	-18%	CCOC(=O)c1ccc(NC(=O)c2cnn3c(=O)c4c(n(CC)c23)CCN(Cc2ccc(OC)cc2)C4)cc1
-2%	6%	O=C(CN1CCN(S(=O)(=O)c2ccc(Cl)cc2)CC1)Nc1ccc(F)cc1F
-7%	26%	CCC1=Nc2cc(C(=O)NCCN3CCCC3)ccc2Sc2ccc(C)cc21
-12%	9%	COc1cc(-c2nnc(SCCOc3cc(C)cc(C)c3)o2)cc(OC)c1OC
2%	12%	Clc1ccccc1Sc1cnc2ccccc2n1
-5%	0%	COc1cccc(OC)c1C(=O)n1nc(C)cc1C
-19%	-7%	COc1ccc(-n2nc(C(=O)NCC(=O)Nc3cc(OC)ccc3OC)c3ccccc3c2=O)cc1
-6%	13%	Cc1ccc(-c2nn(-c3ccccn3)c(=O)c3ccccc23)cc1
-5%	-4%	O=C(COc1ccc(S(=O)(=O)N2CCOCC2)cc1)Nc1ccccc1Cl
1%	-9%	CCOc1ccc2nc(NCCCO)[nH]c2c1
-11%	-6%	CCOC(=O)N/N=C/c1ccc(OCCSc2ccc(Cl)cc2)c(OCC)c1
-3%	12%	Cn1cccc1Cc1nnc(SCC(=O)N2CCOCC2)n1CCc1ccccc1
-6%	3%	CCOC(=O)N1CCC(C(N)=O)CC1
-1%	0%	Cc1ccc(-n2nc(C)c(NC(=O)COC(=O)c3ccccc3NCCO)c2C)cc1
-2%	6%	COc1ccc(OC)c(NC(=O)CCN2CCN(Cc3ccccc3)CC2)c1
-10%	0%	CSc1cccc(N2CC(C(=O)Nc3ccccc3N3CCCC3)CC2=O)c1 (configuration not stated)
1%	0%	CC(=O)c1cccc(CN2CCC(C(=O)Nc3cccc(-c4ccn[nH]4)c3)CC2)c1
0%	-8%	C=C(C)C(=O)Nc1nnc(-c2ccccc2C)s1
-4%	8%	O=C(OCc1ccc(Br)cc1F)c1cc2ccccc2oc1=O
-7%	0%	O=C(CCNC(=O)c1ccc([N+](=O)[O-])cc1)Nc1cccc(S(=O)(=O)N2CCCCCC2)c1
-3%	-6%	CNc1nnc(-c2ccncc2)s1
0%	1%	CCC1=NNC(=O)C(CC(=O)Nc2ccccc2)c2cc(OC)c(OC)cc21 (configuration not stated)
-5%	-9%	CC(C)(C)NS(=O)(=O)NC(=O)C1=C(N2CCCC2)COC1=O
-2%	-8%	CC(C)N1CCC(N2CCN(Cc3cccnc3)CC2CCO)CC1 (configuration not stated)
-3%	-1%	COc1ccccc1/C=C(\NC(=O)c1ccc(OC)c(OC)c1)C(=O)Nc1cccc([N+](=O)[O-])c1
2%	15%	Cc1ccccc1N(CC(N)=O)S(C)(=O)=O
-3%	-15%	Cc1ccc(S(=O)(=O)Nc2cc(C(=O)NCCN(C)C)ccc2N2CCCC2)cc1

# Structures listed so far that have an NH in an aromatic ring, in the order listed:
KAT2A inh	FEN1 inh	SMILES
2%	0%	COCCn1c(=S)[nH]c2cc(C(=O)N3CC(C)CC(C)C3)ccc2c1=O (configuration not stated)
1%	-3%	Cc1ccc2[nH]c(=O)c(CN(CCN3CCOCC3)C(=O)Nc3ccccc3F)cc2c1
1%	-9%	CCOc1ccc2nc(NCCCO)[nH]c2c1
1%	0%	CC(=O)c1cccc(CN2CCC(C(=O)Nc3cccc(-c4ccn[nH]4)c3)CC2)c1

# Later entries
KAT2A inh	FEN1 inh	SMILES
-1%	-2%	CCCN1CCN(CCCNC(=O)C2CCN(c3nnc(-n4c(C)ccc4C)s3)CC2)CC1
-17%	-6%	Clc1ccccc1Nc1c2c(nc3ncnn13)CCC2
-3%	-10%	CCOC(=O)c1cc(-c2ccccc2)sc1N
-2%	5%	CCOc1cc(C(=O)Nc2ncn[nH]2)cc(OCC)c1OCC
?	-24%	O=C(CSc1nc(O)c(Cc2ccccc2)c(=O)[nH]1)Nc1nnc(SCc2ccccc2)s1
-8%	-5%	COc1ccc(C(=O)O)cc1S(=O)(=O)Nc1ccc(Oc2ccccc2)cc1
-3%	-2%	CCS(=O)(=O)C(=C1NCCO1)S(=O)(=O)CC
-1%	2%	Cc1ccnc(NC(=O)CCC(=O)N(CC(=O)NC(C)(C)C)C2CCCC2)c1
-5%	9%	Cc1ccc(N(CC(=O)NC2CC2)S(=O)(=O)c2ccccc2)c(C)c1
-1%	0%	CC1CCCC(NC(=O)COC(=O)[C@@H](NC(=O)c2ccccc2Cl)C(C)C)C1C (some centres not stated)
4%	-5%	CCc1c(CN2CCN(c3cccc(C)c3C)CC2)csc1C
-7%	-6%	COc1ccc(N(C)S(=O)(=O)c2ccc3c(c2)CC(C)N3C(=O)C2CC2)c(OC)c1 (configuration not stated)
-6%	2%	CC(C)n1nc(CC(=O)O)c2ccccc2c1=O
-11%	-4%	CCCCN1Cc2c(nc3cc(-c4ccccc4)[nH]n3c2=O)C1=O
22%	-3%	Cc1cccc(OC(=O)NCCOC(=O)N(O)c2ccc(Cl)cc2)c1
-2%	4%	CCC(=O)N1N=C(c2ccc(OC)cc2)CC1c1cn(-c2ccccc2)nc1-c1cccs1 (configuration not stated)
-4%	9%	Cc1ccc(NC(=O)Nc2cc(S(C)(=O)=O)ccc2Cl)cc1
-12%	16%	Cc1ccccc1OCCCCn1nnc2sc3c(c2c1=O)CCC(C)C3 (configuration not stated)
-11%	-3%	CCc1ccc(N2CCn3c2nc2c3c(=O)n(CCc3ccccc3)c(=O)n2C)cc1
0%	-15%	O=C(NCCc1ccccc1)C1CC(=O)N(C2CCCCCC2)C1 (configuration not stated)

# Sorted by length of the SMILES (smallest number first): some entries from above
KAT2A inh	FEN1 inh	SMILES
-3%	-10%	CCOC(=O)c1cc(-c2ccccc2)sc1N
-17%	-6%	Clc1ccccc1Nc1c2c(nc3ncnn13)CCC2
-4%	9%	Cc1ccc(NC(=O)Nc2cc(S(C)(=O)=O)ccc2Cl)cc1
-8%	-5%	COc1ccc(C(=O)O)cc1S(=O)(=O)Nc1ccc(Oc2ccccc2)cc1

# (list continues)
KAT2A inh	FEN1 inh	SMILES
-8%	-12%	O=C(c1ccco1)n1c(=S)nc2ccccn21
-2%	-2%	COc1ccccc1NC(=O)N1C2CCCC1CC(NC(=O)c1ccccc1)C2 (configuration not stated)
-3%	2%	CCn1c(C)c(C)c2cc(C(=O)NCCc3ccc(C)cc3)ccc21
-4%	-5%	COc1cc(NC(=O)C2CC(=O)NC3=C2C(=O)CCC3)cc(OC)c1 (configuration not stated)
1%	14%	CCOC(=O)c1c(C)nsc1NC(=O)c1ccco1
-1%	-15%	COc1ccccc1NC(=S)NC(=O)c1ccc(-c2ccc(Cl)cc2)o1
0%	4%	CC1CCCCC1NS(=O)(=O)c1ccc(-n2cnnn2)cc1 (configuration not stated)
-1%	-3%	CC1(C)CC(C)(c2ccc(O)cc2O)N(c2cccc(Cl)c2)C(=S)N1 (configuration not stated)
-7%	2%	Cc1ccc(CSc2nncn2-c2ccccn2)cc1
-6%	6%	O=C(CN1C(=O)NC2(CCCCCC2)C1=O)c1cccs1
-7%	-15%	Cn1nccc1C(=O)NCCN1C(=O)OC(C)(C)C1(C)O (configuration not stated)
-5%	1%	CCN1C(=O)c2cccc3c(NC(=O)c4ccc(S(=O)(=O)N(C)C)cc4)ccc1c23
0%	-14%	COc1nc(-c2ccc(C)cc2)ccc1-c1noc(-c2ccccc2Br)n1
-1%	-5%	Cc1nn2cnc3sc4c(c3c2nc1=O)CCCC4
-3%	-8%	CCCN1CCC(NC(=O)CCc2nnc(Cc3cc(OC)ccc3OC)o2)CC1
-1%	-13%	CCCCC(=O)Nc1cccc(-c2nn3c(C)nnc3s2)c1
1%	6%	Cc1ccc(C)c(NC(=S)N(C)C)c1
-1%	-16%	CC(NC(=O)C1CCN(C(=O)Nc2ccccc2)CC1)c1ccc(Cl)cc1 (configuration not stated)
-5%	-2%	COc1cc(F)c(C2=CC(=O)C[C@H](c3ccc(Cl)cc3)C2)cc1F
-4%	2%	C/C(=N\NC(=O)C(C)Oc1ccc([N+](=O)[O-])cc1)c1ccccn1 (configuration not stated)

# 3 of the compounds above, as tab-separated lines.
canonical_smiles	KAT2A inh	FEN1 inh
CC1CCCCC1NS(=O)(=O)c1ccc(-n2cnnn2)cc1 (configuration not stated)	0%	4%
CC1(C)CC(C)(c2ccc(O)cc2O)N(c2cccc(Cl)c2)C(=S)N1 (configuration not stated)	-1%	-3%
Cc1ccc(CSc2nncn2-c2ccccn2)cc1	-7%	2%

# Next section:
KAT2A inh	FEN1 inh	SMILES
4%	14%	C/C(=N\NC(=O)c1ccc(CN2CCOCC2)cc1)c1cccc([N+](=O)[O-])c1
0%	1%	COc1cc(NC(=O)CCCOc2cc(=O)n(C)c3ccccc23)cc(OC)c1OC
-2%	0%	CCCCCC1CC(=O)C=C(C)C1C(=O)OC (configuration not stated)
-4%	-3%	O=C(NC(CSSCC(NC(=O)c1ccccc1)C(=O)O)C(=O)O)c1ccccc1 (configuration not stated)
-4%	11%	COCCCn1c(Cc2csc(Nc3ccccc3)n2)nnc1SCC(N)=O
-16%&-3%	-14%&12%	CC(=O)Nc1ccc(NC(=O)CCNS(=O)(=O)c2cccc3nsnc23)cc1
-1%	2%	COC(=O)c1ccccc1NC(=O)CSc1nc(C)cc(C)n1
-18%	-2%	CCOC(=O)C1=C(CS(=O)(=O)c2ccc(C)cc2)NC(=O)NC1c1ccc(O)c(OC)c1 (configuration not stated)
-1%	0%	Cc1ccc(S(=O)(=O)N2CCN(C(=O)CN3CCc4ccccc4C3)CC2)cc1
-3%	-8%	CCOC(=O)C1=C(C)NC2=C(C(=O)CC(C)(C)C2)C1c1ccc(N(C)C)cc1 (configuration not stated)
1%	4%	O=[N+]([O-])c1ccc(N2CCN(c3ccc(Cl)nn3)CC2)c(Cl)c1
0%	-12%	CN1CCN(C(=S)c2ccc(-c3cccc(Cl)c3Cl)o2)CC1
13%	6%	CCC(C)c1ccc(NC(=S)Nc2ccc(OC)cc2C)cc1 (configuration not stated)
-1%	0%	CC(C)c1csc(CN2CCN(Cc3ccc(F)c(F)c3)C(CCO)C2)n1 (configuration not stated)
-6%	5%	CCCCP(=O)(CCCC)CCP(=O)(c1ccccc1)c1ccccc1
-1%	2%	Cc1cc(C)nc(SCC(=O)N(C)CC(=O)Nc2c(Cl)cccc2Cl)n1
-17%	-17%	Cc1cccc(CCNC(=O)c2cc3c(s2)-c2c(C)cccc2OC3)c1
?	10%	O=C(COC(=O)c1ccccc1C(=O)c1ccccc1)c1ccco1
-4%	-3%	Cc1ccc(S(=O)(=O)N2CCCCC2CCNC(=O)C(=O)NCc2ccccc2C)cc1 (configuration not stated)
5%	12%	CN(C)S(=O)(=O)c1ccc2oc(SCC(=O)Nc3ccccc3F)nc2c1
-9%	2%	COc1ccc(C2C(C(=O)NCc3ccco3)CCC(=O)N2c2ccc(OC)cc2)cc1 (configuration not stated)
-4%	-10%	CCc1ccc(NC(=O)CC2C(=O)OCCN2CC)cc1 (configuration not stated)
-4%	-17%	Cc1ccc(OCCOCCN2CCN(C)CC2)c([N+](=O)[O-])c1
-1%	-14%&-5%	c1ccc2[nH]c(-c3ccnc4ccccc34)nc2c1
-3%	0%	O=C(CSc1ncnc2c1cnn2Cc1ccccc1)Nc1ccc2c(c1)OCCO2
-4%	0%	CC1(C)O[C@@H]2[C@H](O1)[C@@H](CO)O[C@H]2n1ccc(=O)[nH]c1=O
-5%	14%	O=C1CN(C(=O)COc2ccccc2)c2ccccc2N1
4%	6%	Cn1c(Cc2cccs2)nnc1SCc1nc2ccccc2[nH]1
-2%	8%	CCN(CC)C(=O)CN(c1cc2c(cc1OC)oc1ccccc12)S(=O)(=O)c1ccc(C)cc1
-9%	0%	CCOc1cc(C2Nc3ccccc3C(=O)N2c2ccccc2)c(Br)cc1OCC(=O)O (configuration not stated)
?	?	CCc1nc2ccc(C(=O)N(C)CC(=O)Nc3ccc(Cl)c(C(F)(F)F)c3)cc2nc1CC
0%	-5%	N#C/C(=C/c1ccc(N2CCOCC2)o1)C(=O)Nc1ccccc1

# Reformatted: results already given.
Molecule | KAT2A inh | FEN1 inh
O=C(COc1ccc(S(=O)(=O)N2CCOCC2)cc1)Nc1ccccc1Cl | -5% | -4%
CCOc1ccc2nc(NCCCO)[nH]c2c1 | 1% | -9%
